# rRNA inh HTS = inhibits bacterial ribosomal RNA function over humanized ribosomes. E. coli WT GFP vs humanized-ribosome RFP mutants, fluorescence, 24 h; hits give low values; DMSO median 0, no signal -100. GFP signal change (wild-type ribosome), % (test concentration not listed). hit rate 1.6% among 350,000. AID 720706;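 active = significant combined selectivity score with lowered wild-type GFP, culture density cut under 30%, mutant RFP and density less affected; inactive = any of these conditions unmet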; also: one replicate is shown; some compounds called inactive have numbers as strong as hits
# RanGTP-Impb inh = disruptors of Ran-importin-beta complex formation – biochemical, FRET, CFP-Ran, YFP-importin-beta, homogeneous, primary screen; cell-free CFP-Ran/YFP-importin-beta FRET ratio; inhibition, % (test concentration not listed); hit rate 1.1% among 300,000; AID 2216;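 active = most replicates above 15%; inconclusive = exactly half above 15%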;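 also: 0% = DMSO wells and 100% = Ran loaded with GDP instead of GTP; wells of about 40 µL received 100 nL stock; the first replicate is given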
# FGF22 binding = binders of recombinant human FGF22 by thermal shift; Q9HCT0; SYPRO orange fluorescence; percent of sucrose octasulfate shift, DMSO zero; calls only at 9.99 µM; hit rate 1.5% among 340,000; AID 651658;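 active = melting point raised past a set limit in the mean and every replicate; inconclusive = no clear call; three in four hits are not shown here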
# Target sequence (Q9HCT0 whole entry, looked up): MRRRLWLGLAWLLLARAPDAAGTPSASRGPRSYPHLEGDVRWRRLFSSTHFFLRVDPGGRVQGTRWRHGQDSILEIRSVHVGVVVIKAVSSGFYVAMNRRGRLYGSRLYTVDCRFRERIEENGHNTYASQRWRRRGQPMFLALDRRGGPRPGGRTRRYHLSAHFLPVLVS
# T cruzi repl = T. cruzi replication inhibition; T. cruzi beta-gal in NIH3T3, luminescence, 90 h; inhibition, % (concentration not given with the values); hit rate 1.4% among 300,000;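 active = mean inhibition across valid replicates above about 55%, limit read from the data; inconclusive = mean below that limit but half or more replicates reach it; inactive = mean below it, under half of replicates reach it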;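 also: signal also drops with host cell toxicity which is not excluded here; 0% = plate median of DMSO wells and 100% = zero luminescence signal; higher percent means less beta-gal luminescence so fewer parasites; stock transfer was 50 nL into about 50 µL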
# AF4-AF9 inh = MLL-AF4/AF9 protein interaction inhibition | P42568 | AlphaScreen, biotin-AF4 peptide binding to FLAG-AF9 | inhibition, % at 10 µM | hit rate 0.47% among 350,000;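 active = every replicate reaching a set inhibition limit, whatever the replicate mean, cut at about 25% in these data; inconclusive = mean inhibition reaches that limit but some replicates miss it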;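 also: 0% = plate neutral control median and 100% = total signal loss; the record names both 10 and 1 µM as test concentration; the first replicate is given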
# Target sequence (P42568 whole entry, looked up): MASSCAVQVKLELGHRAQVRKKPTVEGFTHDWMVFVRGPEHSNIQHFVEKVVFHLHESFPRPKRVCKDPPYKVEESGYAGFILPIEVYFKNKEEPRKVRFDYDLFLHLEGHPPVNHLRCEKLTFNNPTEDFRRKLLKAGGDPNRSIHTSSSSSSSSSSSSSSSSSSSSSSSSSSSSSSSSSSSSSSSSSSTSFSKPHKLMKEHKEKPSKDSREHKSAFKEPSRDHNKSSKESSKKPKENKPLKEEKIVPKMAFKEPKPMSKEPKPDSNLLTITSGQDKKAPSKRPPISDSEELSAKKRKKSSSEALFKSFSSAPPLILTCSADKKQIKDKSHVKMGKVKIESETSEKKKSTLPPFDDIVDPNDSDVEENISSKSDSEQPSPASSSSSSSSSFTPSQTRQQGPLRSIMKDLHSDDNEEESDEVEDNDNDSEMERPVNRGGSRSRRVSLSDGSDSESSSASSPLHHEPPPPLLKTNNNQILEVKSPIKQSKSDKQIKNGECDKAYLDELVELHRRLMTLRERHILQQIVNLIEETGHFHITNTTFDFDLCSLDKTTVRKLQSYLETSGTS
# ALR H2O2 inh = human ALR oxidase inhibition via reduced H2O2; P55789; purified ALR, DTT oxidation, H2O2 HRP-luminol luminescence; inhibition, % (no concentration beside the values); hit rate 3.8% among 290,000; AID 485317;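 active = mean and each replicate at 75% or more; inconclusive = only one of the two met; inactive = neither met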;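 also: stock transfer was 7.5 nL into about 7.5 µL; 0% = neutral wells and 100% = wells with inactivated enzyme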
# Target sequence (P55789 whole entry, looked up): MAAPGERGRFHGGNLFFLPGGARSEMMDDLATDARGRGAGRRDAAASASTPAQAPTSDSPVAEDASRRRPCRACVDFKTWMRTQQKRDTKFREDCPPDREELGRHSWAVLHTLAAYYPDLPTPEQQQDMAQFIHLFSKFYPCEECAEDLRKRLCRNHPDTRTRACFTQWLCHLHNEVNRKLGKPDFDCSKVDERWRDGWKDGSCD
# Calb FLC = affects C. albicans growth with fluconazole. C. albicans CaCi-2 (fluconazole-resistant clinical isolate) + fluconazole, Alamar Blue growth, 48 h. hit rate 0.57% among 300,000. growth inhibition, % (test concentration not listed);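 active = most replicates above 75%; inconclusive = exactly half above 75%; inactive = most below 75%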;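 also: all wells also contain fluconazole at 8 µg/ml as a sub-toxic cotreatment; 0% = median of DMSO wells and 100% = median of geldanamycin control wells; wells of about 8 µL received 7.5 nL stock; the first replicate is given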
# Beta cell apopt = blocks beta cell apoptosis; INS-1E cytokine-induced death, ATP luminescence, 48 h; percent of positive-control rescue, neutral wells zero; protection from apoptosis, % (no concentration beside the values); hit rate 0.8% among 300,000; AID 435005;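 active = all replicates at 75% or more, or half of them and the mean; inconclusive = half reach 75% but not the mean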;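 also: 0% = cytokine-treated negative control wells and 100% = positive control rescue; higher means more ATP so stronger rescue from cytokine killing; wells of about 40 µL received 100 nL stock; the first replicate is given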
# rRNA inh HTS OD600 = second read-out of rRNA inh HTS, no call of its own (marks repeat the call); OD600 change, %; measured here: OD600 growth;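 optical density of the mix in the first replicate; 0 = DMSO median and -100 = no signal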
# rRNA inh HTS RFP = recorded beside rRNA inh HTS, whose call it bears; RFP signal change, %; measured here: RFP humanized mutant strains;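 first replicate; 0 = DMSO median and -100 = no signal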
# * = called active by the depositor; i = inactive; u = inconclusive; x = not tested or not shown. This is a subset; rates above refer to the full screens.
# The first 6 entries as a preview:
SMILES,rRNA inh HTS,rRNA inh HTS OD600,rRNA inh HTS RFP,RanGTP-Impb inh,FGF22 binding,T cruzi repl,AF4-AF9 inh,ALR H2O2 inh,Calb FLC,Beta cell apopt
Cc1onc(C(=O)N2CCN(C(c3ccccc3)c3ccccc3)CC2)c1[N+](=O)[O-],6,0,2.1,u,i,46,7.2,1,4,-3
Cc1nc(-c2ccc(Cl)cc2)sc1C1(C)CC(c2ccccc2)=NO1 (centres undefined),10,15,-3.3,1.9,i,-16,-3.4,-11,-16,-10
CC1CCCN(c2oc(-c3cccc4ccccc34)nc2C#N)C1 (centres undefined),x,x,x,9.6,x,x,x,-16,3,-13
CC(=O)C1=C(C)NC(SCC(=O)c2ccc(Cl)cc2)=C(C#N)C1CC(C)C (centres undefined),-6,-5,4.9,4.8,i,34,7.1,-30,24,0
CC1(C)N=C(c2ccccn2)C(C)(C)N1O,x,x,x,3.7,x,-9,x,x,-20,-5
CCN1CCN(CCCNC(=O)c2cc3cc4ccc(OC)cc4nc3o2)CC1,x,x,x,-2.8,x,43,x,-6,16,3

# Results, from the start:
SMILES,rRNA inh HTS,rRNA inh HTS OD600,rRNA inh HTS RFP,RanGTP-Impb inh,FGF22 binding,T cruzi repl,AF4-AF9 inh,ALR H2O2 inh,Calb FLC,Beta cell apopt
Cc1onc(C(=O)N2CCN(C(c3ccccc3)c3ccccc3)CC2)c1[N+](=O)[O-],6,0,2.1,u,i,46,7.2,1,4,-3
Cc1nc(-c2ccc(Cl)cc2)sc1C1(C)CC(c2ccccc2)=NO1 (centres undefined),10,15,-3.3,1.9,i,-16,-3.4,-11,-16,-10
CC1CCCN(c2oc(-c3cccc4ccccc34)nc2C#N)C1 (centres undefined),x,x,x,9.6,x,x,x,-16,3,-13
CC(=O)C1=C(C)NC(SCC(=O)c2ccc(Cl)cc2)=C(C#N)C1CC(C)C (centres undefined),-6,-5,4.9,4.8,i,34,7.1,-30,24,0
CC1(C)N=C(c2ccccn2)C(C)(C)N1O,x,x,x,3.7,x,-9,x,x,-20,-5
CCN1CCN(CCCNC(=O)c2cc3cc4ccc(OC)cc4nc3o2)CC1,x,x,x,-2.8,x,43,x,-6,16,3
O=C(Cn1c(=O)[nH]c2ccccc2c1=O)Nc1ccc2c(c1)OCCO2,5,6,0.7,-2.6,i,-9,-0.5,-1,x,-8
Cn1c(N)c(S(=O)(=O)NCc2ccccc2Cl)c(=O)n(C)c1=O,11,2,0.3,-2.3,i,-8,0.7,-4,-4,-9
Cc1c(C)n(-c2ccccc2)c2ncnc(NCCN(C)C)c12,10,13,0.1,-4.0,i,42,6.7,-11,-12,-2
CCOC(=O)C(=O)/C(=C\N(C)C)c1onc(-c2ccccc2Cl)c1C(=O)OC,x,x,x,-1.6,x,-4,x,0,21,-3
COc1ccc(S(=O)(=O)n2cnc(C)c2)cc1,16,7,1.0,-1.0,i,0,-2.5,-4,-4,-1
CCC(CC)NC(=O)/C=C/c1cccc([N+](=O)[O-])c1,6,6,3.1,u,i,0,1.8,-3,18,4

# Copied from the entries so far for reference:
SMILES,rRNA inh HTS,rRNA inh HTS OD600,rRNA inh HTS RFP,RanGTP-Impb inh,FGF22 binding,T cruzi repl,AF4-AF9 inh,ALR H2O2 inh,Calb FLC,Beta cell apopt
COc1ccc(S(=O)(=O)n2cnc(C)c2)cc1,16,7,1.0,-1.0,i,0,-2.5,-4,-4,-1
CCC(CC)NC(=O)/C=C/c1cccc([N+](=O)[O-])c1,6,6,3.1,u,i,0,1.8,-3,18,4

# Other structures follow.
SMILES,rRNA inh HTS,rRNA inh HTS OD600,rRNA inh HTS RFP,RanGTP-Impb inh,FGF22 binding,T cruzi repl,AF4-AF9 inh,ALR H2O2 inh,Calb FLC,Beta cell apopt
CC(C)n1nnnc1SCC(=O)NCc1ccc2c(c1)OCO2,x,x,x,0.8,x,2,x,-13,-6,-5
CN(C(=O)CSc1nnc(-c2ccco2)n1Cc1ccccc1)C1CCS(=O)(=O)C1 (centres undefined),-1,5,-1.2,x,i,x,-3.1,x,x,-4
Cc1cc(C)cc(NCC(=O)Nc2c(C)cccc2C)c1,x,x,x,1.0,x,-1,x,-1,-3,5
COc1cc(-c2noc(C)c2C(=O)NCCCN2CCOCC2)cc(OC)c1OC,4,19,-2.5,x,i,x,2.2,-4,x,-2
CC1(C)CC(=O)C(C2C3=C(CC(C)(C)CC3=O)Oc3ccc4ccccc4c32)C(=O)C1 (centres undefined),8,8,4.2,-2.8,i,-6,-1.9,-13,u,-1
Cc1ccc2cc(C)c(N3CCC(C)CC3)nc2c1,-8,-3,-3.1,-0.4,i,-23,-2.6,-2,3,x
CSc1cccc(NS(=O)(=O)c2ccc3c(c2)oc(=O)n3C)c1,-7,-11,1.9,-4.0,i,-3,-2.7,15,-1,5
CCOc1ccc(N)cc1OC,-7,-14,-0.5,3.1,i,11,15,72,39,-2
COc1ccc(N2CC(C(=O)N[C@@H](C)C(=O)NCCc3ccccc3)CC2=O)cc1 (some centres undefined),8,8,4.4,2.2,i,-11,-1.4,1,0,-9
CS/C(=N/S(=O)(=O)c1ccc(C)cc1)c1ccccc1,x,x,x,3.6,x,-4,x,6,-1,-2
c1ccc(Cn2c[n+](Cc3ccccc3)c3ccccc32)cc1,1,-2,3.7,0.6,i,u,0.4,-4,-10,x
O=C(CSc1ncnc2c1nnn2Cc1ccc(F)cc1)NCC1CCCO1 (centres undefined),2,8,2.8,2.5,i,-15,-1.3,-8,1,-3
O=[n+]1c2c(n([O-])c3c1CCCC3)CCCC2,x,x,x,u,x,-12,x,-9,1,-8
COC(=O)c1ccc(Oc2nc(N(C)C)nc(N3CCOCC3)n2)cc1,x,x,x,-3.0,x,-8,x,-8,14,3
Cc1ccc(N(C(=O)c2sc(C)nc2C)C(C(=O)NCc2ccco2)c2ccccc2)cc1 (centres undefined),0,0,0.7,1.5,i,6,5.3,-2,7,1
Cc1nnc(SC(C)C(=O)Nc2c(C)n(C)n(-c3ccccc3)c2=O)n1N (centres undefined),17,12,0.7,1.9,i,-4,1.0,-24,4,1
COc1ccc2[nH]c(C(=O)Nc3ccccc3Cl)cc2c1,0,-14,0.1,0.7,i,-1,-0.6,-4,-1,-3
O=C(CSCc1ccccc1)N1CCN(C(=O)c2ccco2)CC1,x,x,x,2.7,x,-12,x,1,7,5
COc1ccc(C)cc1NC(=O)CCNS(=O)(=O)c1ccc2c(c1)CCC(=O)N2,1,4,1.1,-2.3,i,-1,2.3,2,-3,-5
CN(CC(=O)Nc1ccc(S(=O)(=O)N(C)C)cc1)Cc1ccc(C(F)(F)F)cc1,-31,-41,-5.2,-0.3,i,4,-1.4,-1,-14,-3
O[C@@H]1CN(Cc2ccccc2Cl)CC[C@H]1N1CCOCC1,14,1,-0.2,0.5,i,2,0.6,-4,-11,-5
CCCn1c(O)c(N=NC(=O)c2ccco2)c2ccccc21,2,7,-3.8,5.9,i,11,3.7,7,59,9
NS(=O)(=O)c1ccc(CCNC(=O)c2ccco2)cc1,10,9,2.7,1.7,i,-11,-0.9,x,6,-11
COc1ccc(-n2nnnc2-c2cccc(OC)c2)cc1,x,x,x,7.1,x,-41,x,-1,-2,6
COc1ccc(NC(=O)C2CCC(CNS(=O)(=O)c3cccs3)CC2)cc1OC (centres undefined),12,13,-1.5,u,i,-3,-0.9,-41,-24,4
Cc1ccc(N=Nc2ccc(O)c(/C=N\NC(=O)c3ccc(N)cc3)c2)cc1C,x,x,x,-3.5,x,10,x,-6,u,30
CCC(Cc1ccccc1)NC(=O)Cn1cccc1C(=O)c1ccccc1 (centres undefined),-12,-6,2.0,-4.6,i,-9,-1.7,-1,15,-7
Cc1ccc(C)c(S(=O)(=O)NCC(c2ccco2)N2CCc3ccccc3C2)c1 (centres undefined),-10,-14,9.7,3.0,i,23,-9.2,-8,31,-4
COc1ccc2nc(C)cc(SCC(=O)NNC(=O)COc3cccc4ccccc34)c2c1,x,x,x,u,x,-11,x,u,1,-4
CCCNc1c(NS(=O)(=O)c2c(F)c(F)c(F)c(F)c2F)c(=O)oc2ccccc12,10,17,2.6,-4.4,i,-14,2.3,-8,2,-3
CCc1cc2c(=O)n(CCCOC)c(SCC(=O)Nc3oc(C)c4c(C)n[nH]c(=O)c34)nc2s1,3,2,-0.2,-2.7,i,15,-2.1,x,13,-5
CCOCCn1c(CN2CCN(CC)CC2)nc2c1c(=O)n(C)c(=O)n2C,0,8,-7.0,-0.5,i,-20,1.2,-3,-4,-6
CC(Oc1ccc(-n2cnnn2)cc1)C(=O)O (centres undefined),8,10,3.1,-1.5,i,-12,-0.5,-8,-10,2
CC(C)c1ccc(C(=O)Nc2cccnc2)cc1,-13,-14,-4.8,0.3,i,-5,-0.5,x,4,-4
O=C(Nc1ccc2c(c1)CCC2)C1CCN(c2c3c(nc4ncnn24)CCC3)CC1,x,x,x,-0.2,x,-8,x,12,32,10
COc1cccc(-c2nc(CS(=O)(=O)CC(=O)N3CCN(C4CCCCC4)CC3)c(C)o2)c1,-1,2,2.1,3.2,i,-2,-2.0,99*,0,3
CC(C)(C)c1cc(C(=O)O)c(CN2CCCCC2)o1,x,x,x,-0.3,x,-2,x,1,-4,-7
CCCn1c2ccccc2c2cnn(CC(=O)N3CCOCC3)c(=O)c21,3,-5,1.4,-0.2,i,-21,-3.0,-1,1,0
Cc1cccc(/C=N/NC(=O)c2cc3c(s2)-c2ccccc2CC3)c1,x,x,x,4.1,x,11,x,x,-7,-5
O=C(NCc1ccco1)C1CC(c2c(Cl)cccc2Cl)=NO1 (centres undefined),-3,-12,0.7,5.2,i,-8,-2.4,-4,-13,-6

# 5 structures out of the list, ordered by molar mass, largest number first:
SMILES,rRNA inh HTS,rRNA inh HTS OD600,rRNA inh HTS RFP,RanGTP-Impb inh,FGF22 binding,T cruzi repl,AF4-AF9 inh,ALR H2O2 inh,Calb FLC,Beta cell apopt
COc1cccc(-c2nc(CS(=O)(=O)CC(=O)N3CCN(C4CCCCC4)CC3)c(C)o2)c1,-1,2,2.1,3.2,i,-2,-2.0,99*,0,3
O=C(Nc1ccc2c(c1)CCC2)C1CCN(c2c3c(nc4ncnn24)CCC3)CC1,x,x,x,-0.2,x,-8,x,12,32,10
CCCn1c2ccccc2c2cnn(CC(=O)N3CCOCC3)c(=O)c21,3,-5,1.4,-0.2,i,-21,-3.0,-1,1,0
Cc1cccc(/C=N/NC(=O)c2cc3c(s2)-c2ccccc2CC3)c1,x,x,x,4.1,x,11,x,x,-7,-5
CC(C)(C)c1cc(C(=O)O)c(CN2CCCCC2)o1,x,x,x,-0.3,x,-2,x,1,-4,-7

# From PubChem BioAssay
